NOMO-1 viab: STK33 inhibitor candidate reducing NOMO-1 cell viability | NOMO-1 AML viability, CellTiter-Glo luminescence, 72 h | inhibition, % (no concentration beside the values) | hit rate 7.5% among 37,000 | AID 2330;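 active = most replicates above 80%; inconclusive = exactly half above 80%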;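 note: wells of about 30 µL received 25 nL stock; 0% = median of vehicle wells and 100% = reference inhibitor level; the first replicate is given; inactives centre near 10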
Active calls of the source: *; u = inconclusive. An excerpt. The share of hits here may be higher or lower than overall.

| structure | NOMO-1 viab |
| --- | --- |
| Cc1ccc(S(=O)(=O)Nc2cccc3c2O[C@@H](CN(C)S(=O)(=O)c2ccc(F)cc2)[C@@H](C)CN([C@@H](C)CO)C3=O)cc1 | -3 |
| C[C@H]1CN([C@@H](C)CO)C(=O)c2cc(NC(=O)CCC(F)(F)F)ccc2O[C@H]1CN(C)C | 32 |
| COc1ccc(S(=O)(=O)NCc2ccccn2)cc1Cl | -2 |
| Cc1cc(F)ccc1S(=O)(=O)NCC1CC2CCC1C2 (stereo unspecified) | u |
| C[C@@H]1CN([C@H](C)CO)C(=O)Cc2cc(NC(=O)Nc3ccc4c(c3)OCO4)ccc2O[C@H]1CN(C)Cc1ccncc1 | 8 |
| Cc1ccc2cc(S(=O)(=O)NCCCC(=O)O)ccc2c1 | -16 |
| Cc1ccc(S(=O)(=O)N2CCCC2C(=O)NCCO)cc1 (stereo unspecified) | -29 |
| Cc1ccc2oc(-c3ccc(Cl)c(NC(=O)COc4ccc(C)c(C)c4)c3)nc2c1 | 16 |
| O=C(O)CCCC(=O)Nc1ccc(I)cc1 | 2 |
| O=C(O)c1ccc2ccccc2c1Br | 11 |
| COC(=O)c1cccc(NC(=O)CSc2nc(C)cc(-c3ccccc3)n2)c1 | 45 |
| C[C@H]1CN([C@@H](C)CO)C(=O)c2cc(NS(=O)(=O)c3ccc(Cl)cc3)ccc2O[C@H]1CN(C)Cc1ccc(C(=O)Nc2ccccc2N)cc1 | 111* |
| C[C@@H]1CN([C@@H](C)CO)C(=O)c2cc(NC(=O)Nc3ccc(C(F)(F)F)cc3)ccc2O[C@@H]1CN(C)S(=O)(=O)c1cccs1 | 109* |
| C=C[C@H]1[C@H](OC2OC(CO)C(O)C(O)C2O)OC=C(C(=O)OC)[C@H]1CCOC(=O)c1cc(O)c(O)c(O)c1 (stereo partly specified) | 13 |
| CNC[C@@H]1Oc2c(NS(=O)(=O)c3cccs3)cccc2C(=O)N([C@@H](C)CO)C[C@H]1C | 5 |
| Cc1c(Br)c([N+](=O)[O-])nn1CC(=O)Nc1cc(F)ccc1F | 3 |
| C[C@H]1CN([C@@H](C)CO)C(=O)c2cccc(NC(=O)C3CCCCC3)c2O[C@@H]1CN(C)C(=O)Nc1ccccc1 | -4 |
| CS(=O)c1sc(C(=O)OCc2ccccc2)c2c1C(=O)CC(C)(C)C2 (stereo unspecified) | 116* |
| C[C@@H]1CN([C@H](C)CO)C(=O)c2cccc(NS(C)(=O)=O)c2O[C@H]1CN(C)S(=O)(=O)c1ccccc1 | -12 |
| C[C@@H]1CN([C@@H](C)CO)C(=O)c2cccc(NC(=O)c3nc4ccccc4s3)c2O[C@@H]1CN(C)S(=O)(=O)c1ccccc1 | 102* |
| COc1ccc2nc(SCC3=CC(C)(C)N(C(C)=O)c4ccccc43)nc(C)c2c1 | 34 |
| CC(C)NC(=O)N(C)C[C@H]1OCCCC[C@@H](C)Oc2ccc(NS(=O)(=O)c3ccc(Cl)cc3)cc2C(=O)N([C@H](C)CO)C[C@@H]1C | 9 |
| COc1ccc(CN(C)C[C@H]2Oc3c(NC(=O)c4cc(C)nn4C)cccc3C(=O)N([C@@H](C)CO)C[C@@H]2C)cc1 | 7 |
| CCOC(=O)c1ccc(NC(=O)Cn2nc(C)c([N+](=O)[O-])c2C)cc1 | -8 |
| CC(C)NC(=O)Nc1ccc2c(c1)C(=O)N([C@H](C)CO)C[C@@H](C)[C@H](CN(C)S(=O)(=O)c1cn(C)cn1)O2 | 7 |
| N#CN=C(N)c1sc2nc3c(cc2c1N)CCCCC3 | 63 |
| O=C(CSc1n[nH]c(-c2ccc(Cl)cc2Cl)n1)Nc1ccc(I)cc1 | 26 |
| C[C@@H]1CN([C@H](C)CO)C(=O)c2cccc(NC(=O)C3CCCCC3)c2O[C@@H]1CN(C)C(=O)Nc1cccc2ccccc12 | 29 |
| Cc1noc(C)c1NC(=O)Nc1ccc2c(c1)CC(=O)N([C@@H](C)CO)C[C@@H](C)[C@@H](CN(C)Cc1ccc(C(=O)Nc3ccccc3N)cc1)O2 | 36 |
| COc1ccc(OC)c2c(=O)cc(C(=O)O)oc12 | 16 |
| C[C@H](CO)N1C[C@H](C)[C@H](CN(C)Cc2ccc(Oc3ccccc3)cc2)Oc2ccc(NC(=O)C3CCCCC3)cc2CC1=O | 48 |
| O=C(Cn1c(=O)oc2ccccc21)Nc1ccc2c(c1)oc1ccccc12 | 6 |
| O=C(O)c1cccc2cccc(SC(C(=O)O)c3ccccc3)c12 (stereo unspecified) | -17 |
| C[C@@H]1CN([C@H](C)CO)C(=O)c2cccc(NC(=O)Nc3ccc4c(c3)OCO4)c2O[C@H]1CN(C)C(=O)Nc1ccc2c(c1)OCO2 | -11 |
| CCS(=O)(=O)n1nc(-c2ccccc2)nc1NCc1ccco1 | 19 |
| CCn1c(SCC(=O)Nc2sc3c(c2C#N)CCCC3)nnc1-c1ccco1 | 23 |
| COc1ccc(NC(=O)N(C)C[C@@H]2Oc3c(NC(=O)c4nc5ccccc5s4)cccc3C(=O)N([C@H](C)CO)C[C@H]2C)cc1 | 37 |
| CC(C)(C)c1cc(C(=O)NCc2ccc(C#N)cc2)n(Cc2ccccc2)n1 | 45 |
| COc1ccc(S(=O)(=O)N(C)CC(=O)Nc2ccc(Cl)c(Cl)c2)cc1 | -24 |
| COc1ccc(NC(=O)CN2CCN(S(=O)(=O)c3ccc(Cl)cc3)CC2)cc1 | -20 |
| C[C@H]1CN([C@@H](C)CO)C(=O)Cc2cc(NS(=O)(=O)c3cn(C)cn3)ccc2O[C@H]1CN(C)Cc1ccc(C(F)(F)F)cc1 | -13 |
| COc1ccc(CN2CCN(Cc3cccc(OC)c3OC)CC2)c(OC)c1 | 24 |
| C=C[C@](C)(CC/C=C(\C)CC[C@H](O)C(C)(C)O)O[C@@H]1O[C@H](CO)[C@@H](O)[C@H](O)[C@H]1O | -5 |
| COc1ccc(S(=O)(=O)Nc2ccc3c(c2)C(=O)N([C@@H](C)CO)C[C@H](C)[C@H](CN(C)Cc2ccc(Oc4ccccc4)cc2)O3)cc1 | 123* |
| C[C@H](CO)N1C[C@H](C)[C@H](CN(C)C(=O)Nc2ccc(C(F)(F)F)cc2)Oc2ccc(NS(=O)(=O)c3ccccc3)cc2C1=O | 18 |
| CS(=O)(=O)N(CC(=O)Nc1cc(Cl)ccc1Oc1ccccc1)c1ccccc1F | 9 |
| CCCN1C(=O)C(O)(CC(=O)c2ccc(OC)c([N+](=O)[O-])c2)c2ccccc21 (stereo unspecified) | 118* |
| C[C@H](CO)N1C[C@H](C)[C@@H](CN(C)Cc2ccc3c(c2)OCO3)Oc2c(NC(=O)c3ccncc3)cccc2C1=O | 8 |
| COc1cc(NC(=O)COc2ccc(Br)cc2)ccc1NC(=O)c1ccco1 | 3 |
| CC(=O)c1cccc(N(CC(=O)N2CCCC2)S(C)(=O)=O)c1 | 15 |
| CN(C)c1nc(N)nc(CSc2nnnn2-c2ccc(F)cc2)n1 | 9 |
| CCN(CC)C(=O)Nc1ccc(OC)cc1 | 24 |
| Cc1ccc(S(=O)(=O)Nc2ccc3c(c2)C(=O)N([C@H](C)CO)C[C@H](C)[C@@H](CN(C)Cc2ccc(C(F)(F)F)cc2)O3)cc1 | 69 |
| Cc1ccc(-c2nc(SCC(=O)Nc3cc(C)c(C)cc3Br)n[nH]2)cc1 | 12 |
| CCN(CC(=O)Nc1cc(Cl)ccc1OC)S(=O)(=O)c1ccc(C)cc1 | -12 |
| CC(=O)c1cccc(-n2c(CCC(=O)O)ccc2-c2ccc(C)cc2)c1 | 17 |
| COc1ccccc1CN=c1c([N+](=O)[O-])nn(-c2ccccc2)n1O | 38 |
| CC(=O)OCC(=O)[C@@]1(O)CCC2C3CCC4=CC(=O)CC[C@]4(C)[C@@]3(F)[C@@H](O)C[C@@]21C (stereo partly specified) | 3 |
| CC(C)=CCC[C@](C)(O[C@@H]1O[C@H](CO[C@@H]2O[C@@H](CO)[C@H](O)[C@H]2O)[C@@H](O)[C@H](O)[C@H]1O)[C@H]1CC[C@]2(C)C1[C@H](O)CC1[C@@]3(C)CC[C@H](O[C@@H]4O[C@H](CO)[C@@H](O)[C@H](O)[C@H]4O[C@@H]4O[C@H](CO)[C@@H](O)[C@H](O)[C@H]4O)C(C)(C)C3CC[C@]12C (stereo partly specified) | 7 |
| C[C@@H]1CN([C@H](C)CO)C(=O)c2cccc(NC(=O)Nc3ccc4c(c3)OCO4)c2O[C@H]1CN(C)Cc1ccc(Oc2ccccc2)cc1 | 20 |

The list continues.
| structure | NOMO-1 viab |
| --- | --- |
| Cc1ccc(NC(=O)c2ccco2)c(NC(=O)COc2ccccc2Cl)c1 | -6 |
| C[C@@H]1C[C@@H]2O[C@H]2/C=C/C=C\C(=O)Cc2c(Cl)c(O)cc(O)c2C(=O)O1 | 118* |
| Cc1nc(SCC(N)=O)c(C(N)=O)c(C)c1C | 10 |
| CCn1c(SCc2nc3ccccc3[nH]2)nnc1-c1cccc(Cl)c1 | 30 |
| Cc1noc(C)c1S(=O)(=O)Nc1ccc2c(c1)C(=O)N([C@H](C)CO)C[C@H](C)[C@@H](CN(C)Cc1ccc(-c3ccccc3)cc1)O2 | -3 |
| CCc1cccc(C)c1NC(=O)CSc1nc2ccccc2c(=O)n1-c1ccc(C)cc1 | 22 |
| N#Cc1cc2c(nc1SCC(=O)Nc1ccccc1OC(F)(F)F)CCCC2 | -3 |
| CNC[C@@H]1Oc2ccc(NC(=O)Nc3cccc4ccccc34)cc2CC(=O)N([C@H](C)CO)C[C@H]1C | -8 |
| C[C@@H]1CN([C@@H](C)CO)C(=O)c2cccc(NS(=O)(=O)c3ccc(Cl)cc3)c2O[C@@H]1CN(C)Cc1ccc(Oc2ccccc2)cc1 | 88* |
| C[C@H]1CN([C@@H](C)CO)C(=O)c2cc(NC(=O)Cc3ccccc3)ccc2O[C@H]1CN(C)S(=O)(=O)c1ccc(Cl)cc1 | 26 |
| C[C@H](CO)N1C[C@H](C)[C@H](CN(C)S(C)(=O)=O)Oc2ccc(NC(=O)C3CCCCC3)cc2CC1=O | -10 |
| C[C@@H]1CN([C@@H](C)CO)C(=O)c2cccc(NC(=O)C3CC3)c2O[C@H]1CN(C)C(=O)Nc1ccc(F)cc1 | 8 |

Reprinted from the part before: 5 entries; new compounds follow.
| structure | NOMO-1 viab |
| --- | --- |
| CNC[C@@H]1Oc2ccc(NC(=O)Nc3cccc4ccccc34)cc2CC(=O)N([C@H](C)CO)C[C@H]1C | -8 |
| C[C@@H]1CN([C@@H](C)CO)C(=O)c2cccc(NS(=O)(=O)c3ccc(Cl)cc3)c2O[C@@H]1CN(C)Cc1ccc(Oc2ccccc2)cc1 | 88* |
| C[C@H]1CN([C@@H](C)CO)C(=O)c2cc(NC(=O)Cc3ccccc3)ccc2O[C@H]1CN(C)S(=O)(=O)c1ccc(Cl)cc1 | 26 |
| C[C@H](CO)N1C[C@H](C)[C@H](CN(C)S(C)(=O)=O)Oc2ccc(NC(=O)C3CCCCC3)cc2CC1=O | -10 |
| C[C@@H]1CN([C@@H](C)CO)C(=O)c2cccc(NC(=O)C3CC3)c2O[C@H]1CN(C)C(=O)Nc1ccc(F)cc1 | 8 |
| Cc1onc(-c2c(F)cccc2Cl)c1C(=O)NCCCN1CCOCC1 | 38 |
| C[C@@H]1CCCCO[C@H](CN(C)C(=O)c2ccccc2)[C@@H](C)CN([C@H](C)CO)C(=O)c2cc(NC(=O)Nc3ccc(F)cc3)ccc2O1 | 12 |
| C[C@@H]1CN([C@H](C)CO)C(=O)c2cc(NS(=O)(=O)c3ccccc3)ccc2O[C@H]1CN(C)S(=O)(=O)c1ccc(Cl)cc1 | 5 |
| Cc1ccc(S(=O)(=O)N(C)C[C@H]2Oc3c(cccc3N(C)C)C(=O)N([C@H](C)CO)C[C@@H]2C)cc1 | 7 |
| Cc1ccc(NC(=O)CSc2nnc(-c3ccccc3)n2-c2ccccc2)cc1Cl | 9 |
| Cc1ccc(-c2cc(C)nc(SCC(=O)Nc3ccc(C)c(C)c3)n2)cc1 | 6 |
| C[C@H](CO)N1C[C@H](C)[C@@H](CN(C)S(=O)(=O)c2cccs2)Oc2ccc(NC(=O)Nc3ccc(C(F)(F)F)cc3)cc2C1=O | 92* |
| CCn1nnc(NC(=O)COc2ccc(Cl)cc2C)n1 | -16 |
| Cc1ccc(S(=O)(=O)N(C)C[C@@H]2Oc3ccc(NC(=O)c4ccncc4)cc3C(=O)N([C@H](C)CO)C[C@H]2C)cc1 | 2 |
| O=C(CN1CC(=O)Oc2ccccc21)Nc1ccc(O)cc1 | 111* |
| C[C@@H]1CN([C@H](C)CO)C(=O)c2cccc(NC(=O)C3CC3)c2O[C@@H]1CN(C)C(=O)Nc1ccc(C(F)(F)F)cc1 | 29 |
| CS(=O)(=O)N(CC(=O)Nc1ccc(Oc2ccccc2)cc1)c1cc(Cl)c(Cl)cc1Cl | 118* |

Exported field by field: entries from further up
> COC(=O)c1cccc(NC(=O)CSc2nc(C)cc(-c3ccccc3)n2)c1
  NOMO-1 viab: 45
> C[C@H]1CN([C@@H](C)CO)C(=O)c2cc(NS(=O)(=O)c3ccc(Cl)cc3)ccc2O[C@H]1CN(C)Cc1ccc(C(=O)Nc2ccccc2N)cc1
  NOMO-1 viab: 111*
> C[C@@H]1CN([C@@H](C)CO)C(=O)c2cc(NC(=O)Nc3ccc(C(F)(F)F)cc3)ccc2O[C@@H]1CN(C)S(=O)(=O)c1cccs1
  NOMO-1 viab: 109*
> C=C[C@H]1[C@H](OC2OC(CO)C(O)C(O)C2O)OC=C(C(=O)OC)[C@H]1CCOC(=O)c1cc(O)c(O)c(O)c1 (stereo partly specified)
  NOMO-1 viab: 13

New compounds follow
| structure | NOMO-1 viab |
| --- | --- |
| C[C@H]1CN([C@@H](C)CO)C(=O)c2cccc(NC(=O)C3CCCCC3)c2O[C@@H]1CN(C)Cc1ccc(Oc2ccccc2)cc1 | 86* |
| Cc1ccc(S(=O)(=O)Nc2cccc3c2O[C@H](CN(C)C(=O)Nc2c(C)noc2C)[C@@H](C)CN([C@H](C)CO)C3=O)cc1 | 13 |
| C[C@H]1CN([C@@H](C)CO)C(=O)c2cc(NC(=O)Cc3cn(C)c4ccccc34)ccc2O[C@H]1CN(C)C(=O)Nc1ccc(C(F)(F)F)cc1 | 45 |
| CC(C)NC(=O)N(C)C[C@@H]1Oc2ccc(NS(=O)(=O)c3ccc(F)cc3)cc2C(=O)N([C@@H](C)CO)C[C@H]1C | 16 |
| C[C@H]1CN([C@@H](C)CO)C(=O)c2cc(NC(=O)NC3CCCCC3)ccc2O[C@@H]1CN(C)S(=O)(=O)c1cn(C)cn1 | 12 |
